RE007 growth inh – less growth of the S. pombe RE007 Vpr strain; S. pombe RE007 Vpr strain, BacTiter-Glo ATP luminescence, 24 h; control for the full effect not named in the record; Potency, µM (highest dose often 92.2 µM), for the others: at the highest dose activity change, negative = less growth; hit rate 0.21% among 360,000; AID 651644; active = well fitted falling curve with a large enough effect; inconclusive = small, poorly fitted or top-dose-only effect; inactive = no such curve, though single readings can be large or run the other way;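 also: % is scaled to controls: 0 for no effect and ±100 for the full control effect; nearly all actives have a fitted effect of over 50% in size; the assay follows cell death caused by Vpr and the record does not say whether a fall means rescue or toxicity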
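Fission yeast RE007 carrying one integrated HIV-1 vpr copy, seeded at OD 0.01 in PMG+AL medium with 23 nL pinned compound. Grown 24 h at 30 degrees; viability read by BacTiter-Glo luminescence after 5 min.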
Cruzain inh Det – cruzain (T. cruzi) inhibition with detergent; P25779; purified cruzain, Z-FR-AMC fluorescence, 0.01% Triton; Potency, µM, without a hit: max response, negative = inhibition, actives largely listed as inhibitors; hit rate 0.43% among 200,000;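 also: plate controls were neutral wells for no effect and buffer without enzyme for full effect; nearly all actives have a fitted effect of over 40% in size; top concentration of the series not given in the record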
Target sequence (P25779 123-467 limits assumed): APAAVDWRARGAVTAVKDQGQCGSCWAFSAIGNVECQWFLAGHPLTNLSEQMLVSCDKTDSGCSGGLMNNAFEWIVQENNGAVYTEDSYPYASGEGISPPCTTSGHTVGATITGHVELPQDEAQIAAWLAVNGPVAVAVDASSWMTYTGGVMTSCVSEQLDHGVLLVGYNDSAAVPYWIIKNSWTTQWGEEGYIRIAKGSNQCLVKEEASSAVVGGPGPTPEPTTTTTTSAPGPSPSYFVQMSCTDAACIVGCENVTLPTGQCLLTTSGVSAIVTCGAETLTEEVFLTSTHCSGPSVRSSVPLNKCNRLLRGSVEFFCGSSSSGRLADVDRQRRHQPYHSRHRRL
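Enzyme 1.5 nM, Z-FR-AMC 2 uM, NaOAc 100 mM pH 5.5, DTT 5 mM, Triton X-100 0.01%; 15 min RT compound preincubation; kinetic ex360/em450, 60 s delta.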
Lassa entry inh – inhibitors of Lassa virus binding or cell entry; Potency, µM (doses to about 37.9 µM), for the others: at the top dose activity change, negative = inhibition, usual class: inhibitors; hit rate 1.2% among 300,000; Lassa virus pseudotype entry inhibition, cell reporter; control for the full effect not named in the record; active means well fitted inhibition curve with a large enough effect; inconclusive means small, poorly fitted or top-dose-only effect, or effect the other way; inactive means flat fitted curve, though single readings scatter; tested in HEK293 cells; also: % is scaled to controls: 0 for no effect and ±100 for the full control effect; nearly all actives have a fitted effect of over 50% in size; luciferase read-out
SARS PLP yeast – blocks SARS-CoV papain-like protease in a yeast assay. S. cerevisiae expressing SARS-CoV PLpro, growth rescue; control for the full effect not named in the record. Potency, µM (titrated, usually from 32.9 µM), for the others: top-dose activity, positive = growth rescue. hit rate 0.19% among 330,000; active means well fitted rising curve with a large enough effect; inconclusive means small, poorly fitted or top-dose-only effect; inactive means no such curve, though single readings can be large or run the other way; also: 0% is about no effect; nearly all actives have a fitted effect of over 55% in size; growth read by luminescence after 48 h
Cruzain inh noDet – inhibitors of Trypanosoma cruzi cruzain without detergent; hit rate 2.3% among 200,000; purified cruzain, Z-FR-AMC fluorescence, no detergent; Potency, µM, inactives show max response, negative = inhibition, hits mostly inhibitors; P25779; AID 1476;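 also: plate controls were enzyme without inhibitor for no effect and buffer without enzyme for full effect; nearly all actives have a fitted effect of over 40% in size; top concentration of the series not given in the record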
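Purified cruzain at 1.5 nM, pre-incubated 15 min with compound at room temperature in 100 mM sodium acetate pH 5.5, 5 mM DTT, 0.00005% Triton X-100. Reaction started with 2 uM Z-FR-AMC; AMC fluorescence increase over 60 s gives rate.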
NS1 function inh – blocks influenza NS1 protein function | S. cerevisiae slowed by influenza A NS1, growth recovery by OD600 | Potency, µM (titrated, usually from 46.1 µM), without a hit: at the highest dose activity, positive = more growth | hit rate 0.4% among 270,000 | AID 2326; active means well fitted rising curve with a large enough effect; inconclusive means small, poorly fitted or top-dose-only effect; inactive means no such curve, though single readings can be large or run the other way; also: nearly all actives have a fitted effect of over 50% in size
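A cell-based growth assay was used: compounds that relieve NS1-induced slow growth of budding yeast raise OD600. Assay medium was yeast nitrogen base with ammonium sulphate and -URA supplement, pH 6.0, with 2% galactose.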
2A StopGo – lowers the luciferase signal of an FMDV 2A StopGo reporter; human cells with a luciferase reporter of 2A StopGo recoding; control for the full effect not named in the record; Potency, µM (highest dose often 57.9 µM), for inactives: at the top dose signal change, negative = less light; hit rate 1.2% among 410,000; AID 1159524; active = well fitted falling curve with a large enough effect; inconclusive = small, poorly fitted or top-dose-only effect; inactive = no such curve, though single readings can be large or run the other way; tested in HEK293T cells; also: % is scaled to controls: 0 for no effect and ±100 for the full control effect; nearly all actives have a fitted effect of over 45% in size; luciferase light after 4 h
MARV entry inh – inhibitors of Marburg virus binding or cell entry | Marburg virus pseudotyped entry inhibition, cell reporter; control for the full effect not named in the record; about a third of the inactives were read at about 46 µM | Potency, µM (highest dose often 37.8 µM), for the others: top-dose activity change, negative = inhibition, hits mostly inhibitors | hit rate 1.8% among 300,000; active = well fitted inhibition curve with a large enough effect; inconclusive = small, poorly fitted or top-dose-only effect, or effect the other way; inactive = flat fitted curve, though single readings scatter; tested in HEK293 cells; about a fifth of its hits are not listed in these tables; also: % is scaled to controls: 0 for no effect and ±100 for the full control effect; luciferase read-out
* marks the source's active call; other numbers are inactive results; ? = inconclusive; / = no result given; & = joins results of further samples; [ ] = dose if it differs, or a comment. Unless noted, calls follow the shape of the dose curve; as a rule, active = well fitted curve in the direction sought with a large enough effect; inconclusive = small, poorly fitted or top-dose-only effect, or another doubt; inactive = no such curve, though single readings can be large; an effect the other way counts as inactive or inconclusive. Potency is read from the fitted curve at half-maximal effect. No enrichment for hits; overall some 4.6% were active at least once.

SMILES	RE007 growth inh	Cruzain inh Det	Lassa entry inh	SARS PLP yeast	Cruzain inh noDet	NS1 function inh	2A StopGo	MARV entry inh
COc1ccc(C(=O)N(CN2CCCC2=O)c2nccs2)cc1OC	-2%[3.69 µM]	-7.8%	-15%	-3%	4%	-8%	13%	8%
O=C1C(Cl)=C(Oc2ccccc2)C(=O)c2ccccc21	3.2µM*	/	-11%[46.1 µM]	/	/	/	?	?
CC1CN(C(=O)c2ccc(CNS(=O)(=O)c3cccc(Cl)c3)cc2)CC(C)O1 (stereo not given)	5%	/	-7%	3%	/	-5%	-5%	-29%
Cc1ccc(-n2cnc(N)c2C(=O)c2cccc([N+](=O)[O-])c2)cc1	2%	/	?	-2%	/	0%	-20%	?
CCSc1ncc(Cl)c(C(=O)N(Cc2ccc(N(C)C)cc2)C2CCS(=O)(=O)C2)n1 (stereo not given)	-4%	-2.4%	11%	2%	28%	-12%	-13%	-14%
COc1ccccc1NC(=O)c1oc2ccccc2c1NC(=O)C1CCCCC1	/	-1.4%	7%[46.1 µM]	/	2%	/	-16%	-4%[46.1 µM]
O=C(c1cc(-c2cccc(O)c2)on1)N1CCOCC1	-19%	-1.7%	/	4%	2%	-12%	-22%	/
COc1ccc(NC(=O)c2ccco2)cc1NC(=O)COc1cc(C)ccc1C(C)C	/	-2.1%	-1%[46.1 µM]	/	-4%	/	?	-27%[46.1 µM]
Cc1cc(-c2nn3c(C)nnc3s2)ccc1NC(=O)C(C)(C)C	12%	/	-15%	/	/	2%	52%[activator]	?
CCC(C)NC(=O)c1sc2nc3n(c(=O)c2c1C)CCC3 (stereo not given)	/	-4.8%	9%[46.1 µM]	/	30%	/	-13%	/
COc1cc(C)c(NC(=S)NCCCN2CCOCC2)cc1OC	13%	/	1%	-2%	/	3%	-14%	-6%[46.1 µM]
Cc1c(S(=O)(=O)N2CCCCC2)c(=O)n(C)c(=O)n1C	-1%	/	9%	-1%	/	/	-18%	-3%[46.1 µM]
CC1Oc2ccccc2C=C1/C=N/Nc1ccc(C(=O)O)cc1 (stereo not given)	?	/	/	-3%	/	-75%	?	/
O=C(CCc1ccccc1)NC(=S)Nc1cccc(C(=O)O)c1	-9%	/	3%[46.1 µM]	5%	/	?	-23%	?
CCN(CC)S(=O)(=O)c1ccc(-c2nnc(SCC(C)=O)o2)cc1	-5%	2.6%	-2%	3%	8%	5%	0%	4%
COc1ccc(NCC(=O)n2c(C)c(C)c3ccccc32)cc1	-15%	/	?	2%	/	/	-14%	-1%
CCCn1c(N)c(N2CCCCC2)c(=O)n(CC(=O)Nc2ccccc2C(F)(F)F)c1=O	5%	/	-1%	-19%	/	/	16%	-1%
Cc1nc(C(F)(F)F)ccc1C(=O)NN1CCOCC1	-10%	/	?	-1%	/	9%	3%	29%
CCN(CC)C(=S)SC1CCCCN(C(=O)c2ccccc2)C1=O (stereo not given)	-13%	/	/	-1%	/	-6%	?	/
Cc1ccc(NS(=O)(=O)c2cc(C(=O)NCCCN(C)C)ccc2Cl)cc1Cl	-6%	/	-2%	1%	/	/	51%[activator]	?
CNC(=S)N1N=C(c2ccc(Br)cc2)CC1c1ccc(Br)cc1 (stereo not given)	7%	-2.8%	-20%	1%	?	10%	-16%	?
COc1cc(/C=C(/C#N)C(=O)NC(C)c2ccccc2)cc(OC)c1O (stereo not given)	-4%	/	3%[46.1 µM]	-1%	/	2%	-1%	-4%[46.1 µM]
CCC(C)NC(=O)COC(=O)c1ccccc1OCC(=O)Nc1ccc(Br)cc1 (stereo not given)	-1%	2.8%	17%	0%	15%	4%	-14%	-11%
Cc1c(CCC(=O)N2CCC[C@H]2C(=O)O)c(=O)oc2c(C)c3oc4c(c3cc12)CCCC4	-4%	/	/	4%	/	29%	0%	/
O=[N+]([O-])c1ccccc1CN1CCN(S(=O)(=O)c2ccccc2)CC1	18%	/	-6%	/	/	/	0%	8%

The listing continues.
SMILES	RE007 growth inh	Cruzain inh Det	Lassa entry inh	SARS PLP yeast	Cruzain inh noDet	NS1 function inh	2A StopGo	MARV entry inh
CCOc1ccc(C(=O)CSc2nnc3ccccn23)cc1	-2%	-5.8%	?	-7%	-9%	-5%	11%	4%
Cc1ccc(C(CC(=O)O)Nc2nc(N3CCCCC3)nc(N3CCCCC3)n2)cc1 (stereo not given)	-13%	-4.9%	1%	3%	?	10%	?	12%
COC(=O)c1cnc(N2CCN(c3ccc(F)cc3)CC2)c2ccccc12	/	0.2%	-21%[46.1 µM]	/	-8%	/	?	/
COc1ccc([N+](=O)[O-])cc1NC(=O)C(C)N1CCN(C(=O)c2ccco2)CC1 (stereo not given)	2%	/	-2%	0%	/	/	2%	8%[46.1 µM]
CC(C)c1ccc(CNc2cc(N3CCCC3)ccc2[N+](=O)[O-])cc1	1%	-3.8%	-25%	1%	-28%	27%	/	?
CCOc1ccc(-n2c(SCC(=O)Nc3cc(C)on3)nc3c([nH]c4ccccc43)c2=O)cc1	-16%	6.3%&-4.1%	-18%[46.1 µM]	4%	-18%&-13%	-49%	-16%&-19%	/
CCC(=O)Nc1cccc(Oc2nc(C)cc(C)c2C#N)c1	12%	2.2%	/	-21%	3%	-9%	-10%	/
O=C1/C(=C\c2ccncc2)SC(=S)N1C1CCCCC1	?	-0.5%	-1%	20%	9%	3%	-24%	14%
O=C(Cc1cccc(F)c1)N1CCOCC1	-8%	/	-14%[46.1 µM]	/	/	/	-7%	-8%[46.1 µM]
O=C(NC1CCc2ccccc21)c1cc(COc2ccc(F)cc2F)on1 (stereo not given)	-9%	/	6%	0%	/	2%	-8%	?
C=COCCNC(=O)C(=O)NC(C)C	-3%	3.1%	5%	-7%	-2%	8%	-2%	-1%
O=C(COc1ccc(C(=S)N2CCOCC2)cc1)N1CCCC1	-3%	3.3%	5%	3%	?	-1%	-13%	13%
COc1ccc(N2CC(C)Cn3c2nc2c3c(=O)[nH]c(=O)n2C)cc1 (stereo not given)	26%	-0.6%	-6%	1%	6%	-3%	-19%	-11%
CCCn1c(N)c(C(=S)NC(=O)C2CC2)c(=O)n(C)c1=O	-6%	-4.1%	1%	8%	4%	-5%	-20%	22%
CC(C)C1Cc2c(sc3c2c(=O)n(Cc2ccccc2)c2nncn32)CO1 (stereo not given)	-21%	1.2%	?	0%	?	7%	0%	-14%
Cn1c(Cn2c(=O)sc3ccccc32)nnc1SCC(=O)Nc1ccccc1	-10%	-4.3%	/	18%	5%	2%	2%	/
NS(=O)(=O)c1ccc(Sc2ccc3c(c2)CCC3)nc1	-12%	/	-27%	-1%	/	-19%	?	-1%[46.1 µM]
CN(C)c1ccnc2sc3c(NCC(O)CO)ncnc3c12 (stereo not given)	-8%	-4.3%	1%	34%	2%	-14%	5%	-1%
Cc1ccc(CNC(=O)c2ccc(CSc3nc4ccncc4n3Cc3ccc(C)cc3)cc2)cc1	/	1.7%	?	/	?	/	-30%	-25%[46.1 µM]
CN(Cc1ccc(C(C)(C)C)cc1)C(=O)c1ccc2c(c1)OCO2	32%	/	?	4%	/	/	-19%	?
O=C(O)c1cccnc1SC1CC(=O)N(c2cccc(C(F)(F)F)c2)C1=O (stereo not given)	16%	-4.2%	/	-7%	-12%	8%	0%	/
O=C(CC(NCc1cccnc1)C(=O)O)Nc1ccc(O)cc1 (stereo not given)	/	-1.5%	2%[46.1 µM]	/	8%	/	24%	2%[46.1 µM]
Cc1cc(O)ccc1NC(=O)CCN1C(=O)c2ccc([N+](=O)[O-])cc2C1=O	-6%	-1.3%	4%	12%	-7%	24%	-17%	4%
CC(C)C[C@H](NC(=O)NC1CCCc2ccccc21)C(=O)O (stereo not given in full)	4%	/	1%	2%	/	6%	0%	-1%
CC(=O)N1CCc2c(sc(NC(=O)C3CCCN3S(=O)(=O)c3cccs3)c2C#N)C1 (stereo not given)	4%	/	-5%	-8%	/	/	?	-16%

Further records follow:
SMILES	RE007 growth inh	Cruzain inh Det	Lassa entry inh	SARS PLP yeast	Cruzain inh noDet	NS1 function inh	2A StopGo	MARV entry inh
COc1ccc(-c2csc(NC(=O)c3ccc(OCC(=O)N4CCOCC4)c(OC)c3)n2)cc1OC	23%	-9.0%	?	-17%	?	5%	14µM*	11µM*
Cc1ccc(CN2CCSCC2)c(C)c1	1%	-0.2%	-20%	18%	3%	11%	-3%	0%
O=C(NN1C(=O)/C(=C/c2cccs2)SC1=S)c1ccncc1	-12%	/	-10%	1%	/	0%	-16%	?
COc1ccc(-c2nnc(SCC(=O)N3CCCC(C)C3)o2)c(OC)c1 (stereo not given)	28%	-1.4%	0%	3%	21%	-21%	/	-3%
O=C(c1ccccc1)c1cc2c(cc1[N+](=O)[O-])OCCO2	-5%	/	/	0%	/	-1%	20%	/
COc1cccc(COc2ccc3ccc(=O)oc3c2)c1	?	/	-4%[46.1 µM]	-1%	/	-7%	0%	18%[46.1 µM]
COc1cc2c(cc1OC)C(c1ccc(-c3ccc(Cl)cc3Cl)o1)=NCC2	?	-18%	14µM*	-1%	-7%	-7%	14µM*	6.3µM*
CC(c1ccccc1)N1C(=O)C2C3CCC(C3)C2C1=O (stereo not given)	-1%	1.4%	-3%	11%	-9%	-8%	-24%	?
CC(C)NC(=O)Cn1c(=O)n(CC(=O)N2CCCCC2)c(=O)c2sccc21	-19%	/	/	1%	/	3%	-2%	/
CCOC(=O)C1CCN(S(=O)(=O)c2ccc3c(c2)CC(=O)N3C)CC1	12%	/	?	3%	/	?	-4%	9%[46.1 µM]
N#C/C(=C\c1ccc(Br)s1)C(=O)N1CCN(c2ccccc2)CC1	5%	-6.2%	-2%	3%	-14%	-5%	-27%	8%
Cc1cccc2sc(N(Cc3cccnc3)C(=O)CCc3ccccc3)nc12	/	-0.3%	-6%[46.1 µM]	/	-3%	/	-7%	/
COc1ccc(-c2nc(CNS(=O)(=O)c3ccc(C)cc3)cs2)cc1	/	-10%	?	/	-5%	/	-17%	?
CC(=O)N1c2c(cc(Br)cc2S(=O)(=O)NCc2cccnc2)CC1C (stereo not given)	-2%	2.8%	7%	-3%	-7%	-8%	52%[activator]	-1%

Screens from PubChem.
